# Bioassay records deposited in PubChem BioAssay by National Center for Advancing Translational Sciences (NCATS).
# HSD17B inh: qHTS Assay for Inhibitors of HSD17B4, hydroxysteroid (17-beta) dehydrogenase 4 | 3-hydroxyacyl-CoA dehydrogenase type-2 (Homo sapiens), Q99714 | recombinant HSD17B10, NADH fluorescence kinetic; many of its hits are not listed in these tables | 75,000 tested, 7.6% active | Potency, µM (doses to about 57.1 µM), for inactives: at the highest dose activity change, negative = inhibition, actives largely listed as inhibitors | AID 893, 2007; active = well fitted inhibition curve with a large enough effect; inconclusive = small, poorly fitted or top-dose-only effect; inactive = no such curve, though single readings can be large or run the other way;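 also: the protocol describes HADH2 (HSD17B10) and not the HSD17B4 of the title; nearly all actives have a fitted effect of over 70% in size; most hits overshoot -100% by far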
#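 His-tagged E. coli-expressed HADH2 at 20 nM in 100 mM Tris-HCl pH 9.0 with 0.01 % Tween-20, preincubated 15 min with compound at room temperature. Reaction with 1 mM NAD+ and 90 uM beta-hydroxybutyryl coenzyme A; NADH fluorescence (360/450 nm) read kinetically over 4 min, last minus first point.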
# * hit, by the source's call; ? = inconclusive; & = joins results of further samples; [ ] = dose if it differs, or a comment. % is scaled to controls: 0 for no effect and ±100 for the full control effect; potency is read from the fitted curve at half-maximal effect.
No.	Molecule	HSD17B inh
1	Cc1cccc(Nc2nc(NCc3ccco3)nc(N3CCOCC3)n2)c1	-13%
2	O=c1cc(-c2ccccc2)oc2cc(O)c(O)cc12	?
3	Cc1cc(N=Cc2c(CO)cnc(C)c2O)c(N=Cc2c(CO)cnc(C)c2O)cc1C.[Zn]	?
4	CCOC(=O)c1sc2ncnc(OC)c2c1C	?
5	COc1ccccc1N1CCN(C(=O)c2cc(-c3cccc(Cl)c3)on2)CC1	2%
6	O=c1cc(-c2ccccc2)oc2cccc(O)c12	-4%&-4%
7	Cc1nnc(SCC(=O)NC(C)(C)C)n1CCc1ccccc1	0%
8	O=C(CN1C(=O)NC2(CCCCC2)C1=O)Nc1ccc(S(=O)(=O)N2CCOCC2)cc1	8%
9	COc1ccccc1CCn1c(=O)c(-c2cccc(F)c2)nc2cncnc21	-14%
10	Cc1ccc(C(C)C)c(OCC(=O)OCc2c(C)noc2C)c1	1%
11	COCCCN(Cc1ccccn1)S(=O)(=O)Cc1ccccc1	0%
12	COc1ccc(-c2nn3c(-c4ccccc4)nnc3s2)cc1	?
13	c1ccc(-n2ncc3c(NCc4cccnc4)ncnc32)cc1	25µM*
14	O=c1c(-c2cccc(F)c2)nc2cncnc2n1C1CC1	-7%
15	O=C(NC1(C(=O)NC2CCCCC2)CCCCC1)c1ccc2c(c1)OCO2	8%
16	CCOCN(C(=O)Cn1c(CO)nc2ccccc21)c1c(C)cccc1CC	-1%
17	Cc1c(CN2CCN(c3cccc(C(F)(F)F)c3)CC2)c(=O)n(-c2ccccc2)n1C	5%
18	CCCCN(CCCNC(=O)c1c(C)cc(=O)oc1C)c1ccccc1	-14%
19	Cc1nn(-c2cccc(Cl)c2)c2c1C(c1cccnc1)C(C#N)=C(N)O2 (stereo not drawn)	-7%
20	Cc1cccn2cc(-c3ccccc3)nc12	25µM*
21	COC(=O)CNC(=O)C1CCCN1C(=O)OC(C)(C)C (stereo not drawn)	10%
22	Cc1ccc(C)n1-c1ccc(-c2nnc3n2CCCCC3)s1	-22%
23	COC(=O)c1cc(C(=O)CSc2nc(C)cc(C)n2)ccc1O	-5%
24	O=C(Nc1ccc(Cl)cc1)c1ccncc1	12%

# Quoted from above, entries 17–20
No.	Molecule	HSD17B inh
17	Cc1c(CN2CCN(c3cccc(C(F)(F)F)c3)CC2)c(=O)n(-c2ccccc2)n1C	5%
18	CCCCN(CCCNC(=O)c1c(C)cc(=O)oc1C)c1ccccc1	-14%
19	Cc1nn(-c2cccc(Cl)c2)c2c1C(c1cccnc1)C(C#N)=C(N)O2 (stereo not drawn)	-7%
20	Cc1cccn2cc(-c3ccccc3)nc12	25µM*

# Structures above that contain a tert-butyl group:
No.	Molecule	HSD17B inh
7	Cc1nnc(SCC(=O)NC(C)(C)C)n1CCc1ccccc1	0%
21	COC(=O)CNC(=O)C1CCCN1C(=O)OC(C)(C)C (stereo not drawn)	10%

# Carrying on:
No.	Molecule	HSD17B inh
25	OC(Cn1cccn1)c1ccccc1 (stereo not drawn)	8%
26	CCCn1c(C)nc2c(NC3CCN(Cc4ccccc4)C3)nc(C)nc21 (stereo not drawn)	8%
27	Cc1nc(N2CCOCC2)c2nc(-c3ccccc3)n(CCCN3CCCCC3C)c2n1 (stereo not drawn)	25µM*
28	CCC(c1nnnn1Cc1ccc2c(c1)OCO2)N1CCN(c2ccc(F)cc2)CC1 (stereo not drawn)	1%
29	Oc1ccccc1-c1nnc(COc2ccccc2)o1	?
30	Cc1n[nH]c(C)c1S(=O)(=O)N1CCCC(C(=O)Nc2nccs2)C1 (stereo not drawn)	4%
31	CCCCCCCC(=O)OCC(COC(=O)CCCCCCC)OC(=O)CCCCCCC	-7%
32	Cc1cc(=O)[nH]c(/N=C(/NC(=O)c2ccccc2)Nc2ccc3c(c2)OCCO3)n1	7%
33	CC(=O)Nc1cccc(NC(=O)C2CCCN2C(=O)Nc2ccc(C)cc2)c1 (stereo not drawn)	8%
34	O=S(=O)(c1ccc(NC2CCCCC2)cc1)N1CCOCC1	-11%
35	Cc1nnc(NC(=O)CSc2nnc(Cc3cccn3C)n2C)s1	-7%
36	Cc1ccc(N2CCN(CC(O)COC3CCCCC3)CC2)cc1 (stereo not drawn)	6%
37	COc1ccc2c(Cc3c4ccccc4cc4ccccc34)cncc2c1O	28%[11.4 µM]
38	CN(C)C(=O)N1CCCC(C(=O)NCc2ccccc2Cl)C1 (stereo not drawn)	0%
39	CC(=O)c1c(C)n(-c2ccc(N(C)C)cc2)c2ccc(OCC(N)=O)cc12	-12%
40	COc1ccc(OCC(=O)N2CC3(C)CC2CC(C)(C)C3)cc1 (stereo not drawn)	8%
41	c1ccc2c(c1)nc1n2CN(Cc2ccc3c(c2)OCO3)CN1	4%
42	CC(C)CCNC(=O)CN(CC1CCCO1)C(=O)CCC(=O)Nc1ccccn1 (stereo not drawn)	12%
43	CCc1c(C)nc(Nc2nc(C)c3cc(OC)ccc3n2)[nH]c1=O	0%
44	CNC(=O)CN1C(=O)CSc2ncccc21	0%
45	Cc1ccc(OCCN2CCCCCC2)c(C)c1	10%
46	NC(=O)C1CCN(CC(=O)N2c3ccccc3CCc3ccccc32)CC1	5%
47	Cc1cc(NC(=O)CSc2nc(-c3ccco3)cc(C(F)(F)F)n2)no1	0%
48	Cc1c(Cc2ccccc2)c(=O)oc2cc(OCc3nn[nH]n3)ccc12	32µM*
49	COC(=O)N1CCN(c2ccc(Cl)c(Cl)c2)CC1	-1%
50	Cc1nc2ccccc2c2oc(C(=O)NCc3ccccn3)cc12	25µM*
51	CCc1nnc(NC(=O)CSc2nnc(CNc3ccc(F)cc3)n2C2CCCCC2)s1	-10%
52	Cc1ccc(Cn2cnc3c(nnn3Cc3ccc(Cl)cc3)c2=O)cc1	3%
53	O=C(CSc1nnc(-c2ccncc2)n1-c1ccc(Cl)cc1)N1CCOCC1	-2%
54	COc1ccc2[nH]cc(CCNc3cc(-c4ccc(C(=O)N(C)C)cc4)ncn3)c2c1	-3%
55	C=CCOc1cccc(C2C(C(=O)c3ccco3)=C(O)C(=O)N2CCN(CC)CC)c1 (stereo not drawn)	-2%
56	Cc1c(NC(=O)c2ccc(Br)o2)c(=O)n(-c2ccccc2)n1C	-3%
57	Cc1ccccc1C1CC(c2ccccc2OC(F)F)Nc2ncnn21 (stereo not drawn)	5%
58	CCCCc1ccc2nc(NC(=O)OC)[nH]c2c1	1%[25.6 µM]
59	Cc1ccccc1-c1nc(N(C)Cc2ccco2)c2ccccc2n1	-8%
60	O=C(CCS(=O)(=O)c1cccc2nsnc12)NCc1ccccc1	-2%
61	O=C(Cn1cc2c(n1)CCCC2)NCC1CCCO1 (stereo not drawn)	6%
62	CCN(CC)CCCC(C)Nc1nc(C)cc(Nc2ccc3nc(C)cc(N)c3c2)n1 (stereo not drawn)	-15%
63	CC(C)N1CC(C(=O)Nc2ccc(Br)c(Cl)c2)CC1=O (stereo not drawn)	?
64	COc1ccc(C2C(C(=O)c3cc4cccc(OC)c4o3)=C(O)C(=O)N2CCCN(C)C)cc1OC (stereo not drawn)	22%
65	Cc1ccc(S(=O)(=O)NCC(=O)N(CC(=O)NCC2CCCO2)Cc2ccccc2)cc1 (stereo not drawn)	-8%
66	Cc1ccc2nc(Nc3ncc4c(n3)CCCC4=O)nc(C)c2c1	8%
67	COc1ccc2cc(C(c3nnnn3CCc3ccccc3)N3CCCC(C)C3)c(=O)[nH]c2c1 (stereo not drawn)	15%
68	COc1cccc(OC)c1C(=O)Nc1nnc(C(C)C)s1	-2%
69	COC(=O)c1cccc(S(=O)(=O)N2CCCCC2)c1	7%
70	O=C(CCCn1c(=S)[nH]c2cc3c(cc2c1=O)OCO3)N1CCN(c2ccccn2)CC1	-2%
71	COc1ccccc1NC(=O)NC1(C(=O)N2CCC(O)CC2)CCCCC1	10%
72	Cc1ccccc1NC(=O)c1cccc2nccnc12	8%
73	CC(=O)c1cccc(-n2c(CCC(=O)O)ccc2-c2cccs2)c1	-95%
74	CCOC(=O)C(C(=O)Nc1ccccc1)C1CCCCC1 (stereo not drawn)	-4%
75	COC(=O)CCC(=O)Nc1ccc(OC)cc1	6%
76	O=C(NC1CC1)c1ccc(-c2nc3ccccc3s2)s1	?
77	CSc1ccc(-c2c(C#N)c(N)nc3c2c(C)nn3-c2ccccc2)cc1	32µM*
78	O=C1C2C3C=CC(C3)C2C(=O)N1Cc1cccnc1 (stereo not drawn)	0%
79	Cn1c(=O)c2c(nc(CN3CCOCC3)n2CCCc2ccccc2)n(C)c1=O	5%
80	CCCn1c(=O)c2ccccc2n2c(SCc3c(C(=O)OCC)oc4ccccc34)nnc12	-3%

# Other entries follow:
No.	Molecule	HSD17B inh
81	COc1ccccc1-c1cc(NCc2cccs2)ncn1	-19%
82	O=C(O)c1[nH]c(=O)[nH]c(=O)c1CN1CCCCC1	8%[11.4 µM]
83	COc1ccc(CC(NC(C)=O)C(=O)NC2CCN(C(=O)NCc3ccccc3)CC2)cc1 (stereo not drawn)	4%
84	COc1ccc2nc(NCc3ccccc3)[nH]c2c1	0%
85	CC(C)(C)SCCNS(=O)(=O)c1ccccc1	-2%
86	CCCc1[nH]nc2c1C(c1ccc(OC(=O)N3CCOCC3)c(OC)c1)C(C#N)=C(N)O2 (stereo not drawn)	5%
87	CCn1c(SCc2nc3ccccc3nc2C)nnc1-c1cccs1	2%
88	O=C(Nc1ccc(Cl)cc1)c1ccc2c(c1)OCO2	1%
89	O=C(NCCCN1CCC(Cc2ccccc2)CC1)C1CC(=O)N(C2CCCC2)C1 (stereo not drawn)	2%
90	CCOC(=O)c1c(C)n(C)c2ccc(OCC(O)Cn3nc(C)cc3C)cc12 (stereo not drawn)	10%
91	Cc1ccc(NC(=O)NC(=O)N(c2ccccc2)S(C)(=O)=O)cc1	6%
92	O=C(COC(=O)C12CC3CC(CC(O)(C3)C1)C2)N1CCN(S(=O)(=O)c2ccc(Cl)cc2)CC1	2%
93	c1ccc(-c2ccc(N3CC4(CCNCC4)C3)cc2)cc1	25µM*
94	COC(=O)C1CCN(C(=O)CN2C(=O)NC(CCc3ccccc3)C2=O)CC1 (stereo not drawn)	0%
95	CCOc1cc(C(=O)Nc2cnccn2)cc(OCC)c1OCC	5%
96	COc1ccc(NC(=O)c2oc3ccccc3c2NC(=O)c2ccco2)cc1	-10%
97	CCCC(=O)Nc1ccc(N2CCCCC2)cc1	-2%
98	O=C1NC(=O)C2(COC3(CCCC3)OC2)S1	4%
99	COc1ccc(CN(C(=O)c2ccccc2OC)C2CCS(=O)(=O)C2)cc1 (stereo not drawn)	-3%
100	CCn1c(SCC(=O)c2ccc(Cl)s2)nnc1-c1cccs1	-18%
101	O=C(NC1CC2CCCC(C1)N2S(=O)(=O)c1ccccc1)c1ccccc1 (stereo not drawn)	1%
102	COc1ccccc1CN1CC[C@@]2(CCCN(C(=O)c3ccco3)C2)C1	-21%
103	Cc1onc(-c2ccccc2)c1C(=O)Nc1ccc2c(c1)OCCO2	-4%
104	CN(C#N)c1nc(N2CCOCC2)nc(N2CCOCC2)n1	10%
105	CCOC(=O)c1sc(NC(=O)CCSC)nc1C	-14%
106	FC(F)(F)c1ccc(CN2C[C@@H]3C(c4ccc(C(F)(F)F)cc4)C4(c5cccnc5)CC3(C4)[C@H]2c2ccccc2)cc1 (stereo partly drawn)	-12%
107	Cc1cc(NC(=O)CSc2nccn2-c2ccc(Cl)cc2)no1	-4%
108	CC(C)CC1(C(=O)NCCN2CCOCC2)C=CCN1C(=O)c1ccccc1 (stereo not drawn)	0%
109	CN(C)CCCNCCCNC(=O)c1ccccn1	4%
110	O=C1c2cccc3cccc(c23)C(=O)N1c1nccs1	?
111	CS(=O)(=O)Nc1cccc(-c2nccc(NCc3cccs3)n2)c1	1%
112	c1cn2cc(CN3CCOCC3)nc2s1	1%
113	COc1ccc(CCNc2oc(Cc3ccccc3)nc2C#N)cc1OC	-5%
114	CCCSc1nnc2[nH]c(=O)cc(N)n12	-3%
115	C/C(=C\C(=O)c1ccc(C)o1)Nc1ccc2c(c1)OCO2	-10%
116	O=C(CCCCCn1c(=O)[nH]c2ccccc2c1=O)NCCCN1CCN(c2ccccc2F)CC1	-22%
117	CCOc1ccc(N2C(=O)c3cccnc3C2Nc2ccc(OC)cc2)cc1 (stereo not drawn)	4%
118	COc1ccc(-n2c(=O)c3ccccc3n(CC(=O)NC3CCCC3)c2=O)c(OC)c1	6%
119	CC1CC[C@@]23CCC4(C)[C@@]5(C)CCC6C(C)(C)C(=O)CC[C@@]6(C)C5C=C[C@@]4(OC2=O)C3C1C (stereo partly drawn)	7%
120	O=C(CSc1nnc(-c2ccccn2)n1Cc1ccco1)c1ccc(-c2ccccc2)cc1	-4%
121	O=C(CCCOc1ccccc1)N1CCN(c2ccccn2)CC1	?
122	Cc1cc(N2CCCC2=O)cc(C)c1CN1C(=O)c2ccccc2C1=O	0%
123	O=C(NCc1ccco1)c1cc(S(=O)(=O)N2CCOCC2)ccc1Cl	-14%
124	N#CCSc1nc2ccccc2c(=O)n1-c1ccccc1	8%
125	CCN(CC)CCn1c(=N)n(CCO)c2ccccc21	2%
126	CN1CCN(C(=O)c2cnn(-c3ccccc3)c2NC(=O)c2cccs2)CC1	3%
127	CS(=O)(=O)Nc1ccc(C(=O)NCc2ccco2)cc1	1%
128	Cc1nc(CC(=O)Nc2nc(-c3ccccc3)cs2)cs1	-9%
129	O=C(CCSCCc1ccccn1)Nc1nccs1	-2%
130	Cc1ccc(CNC(=O)C2C3C=CC(C3)C2C(=O)O)cc1 (stereo not drawn)	8%

# Not all compounds are listed; count on the stated rates, not on these rows.
